Lassa entry inh: qHTS for Inhibitors of binding or entry into cells for Lassa Virus; Lassa virus pseudotype entry inhibition, cell reporter; control for the full effect not named in the record; Potency, µM (series often up to 37.9 µM), inactives show at the top dose activity change, negative = inhibition, hits mostly inhibitors; actives 1.2% (n = 300,000); AID 540256, 2011; active means well fitted inhibition curve with a large enough effect; inconclusive means small, poorly fitted or top-dose-only effect, or effect the other way; inactive means flat fitted curve, though single readings scatter; tested in HEK293 cells; further: on the % scale 0 is the no-effect control and ±100 the full control effect; nearly all actives have a fitted effect of over 50% in size; luciferase read-out
Cruzain noTriton: qHTS Assay for Promiscuous and Specific Inhibitors of Cruzain (without detergent) | actives 2.3% (n = 200,000) | purified cruzain, Z-FR-AMC fluorescence, no detergent | Cruzipain (Trypanosoma cruzi), P25779 | AID 1476, 2009 | Potency, µM, inactives show max response, negative = inhibition, hits mostly inhibitors; active means well fitted curve in the direction sought with a large enough effect; inconclusive means small, poorly fitted or top-dose-only effect, or another doubt; inactive means no such curve, though single readings can be large; an effect the other way counts as inactive or inconclusive;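 further: plate controls were enzyme without inhibitor for no effect and buffer without enzyme for full effect; nearly all actives have a fitted effect of over 40% in size; top concentration of the series not given in the record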
Target sequence (P25779 123-467 limits assumed): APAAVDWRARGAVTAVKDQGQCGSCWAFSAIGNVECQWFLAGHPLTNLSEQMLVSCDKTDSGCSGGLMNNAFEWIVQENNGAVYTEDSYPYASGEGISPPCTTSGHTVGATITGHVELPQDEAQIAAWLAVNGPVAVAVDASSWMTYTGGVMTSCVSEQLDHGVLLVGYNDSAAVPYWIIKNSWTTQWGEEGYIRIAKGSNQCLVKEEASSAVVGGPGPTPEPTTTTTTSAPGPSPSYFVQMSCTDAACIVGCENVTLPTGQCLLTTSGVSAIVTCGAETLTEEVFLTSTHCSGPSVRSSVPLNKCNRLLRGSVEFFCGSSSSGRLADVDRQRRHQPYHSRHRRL
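Purified cruzain at 1.5 nM, pre-incubated 15 min with compound at room temperature in 100 mM sodium acetate pH 5.5, 5 mM DTT, 0.00005% Triton X-100. Reaction started with 2 uM Z-FR-AMC; AMC fluorescence increase over 60 s gives rate.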
NS1 inh: qHTS Assay for Inhibitors of Influenza NS1 Protein Function; AID 2326, 2010; Potency, µM (titrated, usually from 46.1 µM), for the others: at the top dose activity, positive = more growth; actives 0.4% (n = 270,000); S. cerevisiae slowed by influenza A NS1, growth recovery by OD600; further: actives are rising curves; nearly all actives have a fitted effect of over 50% in size
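Recovery from NS1-induced slow growth read by OD600 in budding yeast switched to galactose assay medium (pH 6.0, -URA) at 1:100 dilution. Compound 23 nl per well; the matching strain lacking NS1 serves as control.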
Marburg entry inh: qHTS for inhibitors of binding or entry into cells for Marburg Virus; Potency, µM (series often up to 37.8 µM), for inactives: at the highest dose activity change, negative = inhibition, most hits filed as inhibitors; Marburg virus pseudotyped entry inhibition, cell reporter; control for the full effect not named in the record; about a third of the inactives were read at about 46 µM; actives 1.8% (n = 300,000); active = well fitted inhibition curve with a large enough effect; inconclusive = small, poorly fitted or top-dose-only effect, or effect the other way; inactive = flat fitted curve, though single readings scatter; tested in HEK293 cells; about a fifth of its hits are not listed in these tables; further: on the % scale 0 is the no-effect control and ±100 the full control effect; luciferase read-out
SARS PLP yeast: qHTS of Yeast-based Assay for SARS-CoV PLP; S. cerevisiae expressing SARS-CoV PLpro, growth rescue; control for the full effect not named in the record; Potency, µM (top dose mostly 32.9 µM), inactives show at the highest dose activity, positive = growth rescue; actives 0.19% (n = 330,000); further: 0% is about no effect; nearly all actives have a fitted effect of over 55% in size; growth read by luminescence after 48 h
StopGo reporter: High Throughput Screening for Foot and Mouth Disease Virus Antivirals; human cells with a luciferase reporter of 2A StopGo recoding; control for the full effect not named in the record; Potency, µM (highest dose often 57.9 µM), for the others: at the highest dose signal change, negative = less light; actives 1.2% (n = 410,000); active = well fitted falling curve with a large enough effect; inconclusive = small, poorly fitted or top-dose-only effect; inactive = no such curve, though single readings can be large or run the other way; tested in HEK293T cells; further: on the % scale 0 is the no-effect control and ±100 the full control effect; nearly all actives have a fitted effect of over 45% in size; luciferase light after 4 h
Cruzain Triton: qHTS Assay for Promiscuous and Specific Inhibitors of Cruzain (with detergent) | AID 1478, 2009 | purified cruzain, Z-FR-AMC fluorescence, 0.01% Triton | Cruzipain (Trypanosoma cruzi), P25779 | actives 0.43% (n = 200,000) | Potency, µM, without a hit: max response, negative = inhibition, hits mostly inhibitors; active means well fitted curve in the direction sought with a large enough effect; inconclusive means small, poorly fitted or top-dose-only effect, or another doubt; inactive means no such curve, though single readings can be large; an effect the other way counts as inactive or inconclusive;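 further: plate controls were neutral wells for no effect and buffer without enzyme for full effect; nearly all actives have a fitted effect of over 40% in size; top concentration of the series not given in the record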
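Cysteine protease activity tested under reducing, mildly acidic conditions (100 mM sodium acetate pH 5.5, 5 mM DTT) plus 0.01% Triton X-100. Cruzain 1.5 nM; substrate Z-FR-AMC 2 uM; 15 min compound preincubation at room temperature.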
RE007 growth inh: qHTS Assay for Inhibitors of the HIV-1 protein Vpr; S. pombe RE007 Vpr strain, BacTiter-Glo ATP luminescence, 24 h; control for the full effect not named in the record; actives 0.21% (n = 360,000); Potency, µM (highest dose often 92.2 µM), without a hit: at the top dose activity change, negative = less growth; AID 651644, 2012; active = well fitted falling curve with a large enough effect; inconclusive = small, poorly fitted or top-dose-only effect; inactive = no such curve, though single readings can be large or run the other way;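 further: on the % scale 0 is the no-effect control and ±100 the full control effect; nearly all actives have a fitted effect of over 50% in size; the assay follows cell death caused by Vpr and the record does not say whether a fall means rescue or toxicity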
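Fission yeast strain RE007, carrying one chromosomally integrated HIV-1 vpr copy, was seeded at OD 0.01 in PMG+AL medium with 23 nL pinned compound. After 24 h at 30 °C and 99% humidity, viability was read by BacTiter-Glo luminescence.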
* = called active by the depositor; ? = inconclusive; / = no result given; & = joins results of further samples; [ ] = remark or other dose. Unless noted, the call rests on the fitted dose curve; in most records, active means well fitted rising curve with a large enough effect; inconclusive means small, poorly fitted or top-dose-only effect; inactive means no such curve, though single readings can be large or run the other way. Potency means the concentration at half of the fitted maximal effect.

SMILES | Lassa entry inh | Cruzain noTriton | NS1 inh | Marburg entry inh | SARS PLP yeast | StopGo reporter | Cruzain Triton | RE007 growth inh
S=C(NCC1CCCO1)NC1CC1 (stereo not given) | ? | / | 0.9% | 16.9%[46.1 µM] | -0.4% | -18.2% | / | -11.2%
O=C(Nc1ccc2c(c1)OCCO2)C1CCCN1S(=O)(=O)c1cccc2cccnc12 (stereo not given) | -1.4% | 2.0% | -13.2% | 7.7%&7.7% | 6.0% | 3.1% | 1.2% | 0.2%
CN1CC=C2C(C#N)=C(N)C(C#N)(C#N)[C@H](c3ccoc3)[C@H]2C1 | -6.0% | ? | 0.5% | -3.9% | -11.3% | -18.0% | ? | -6.6%
CC(C)(C)c1cc(C(=O)NN)n(Cc2ccc(Cl)cc2Cl)n1 | -29.6%[46.1 µM] | / | ? | 11.2µM* | -0.4% | -5.0% | / | 7.5%
Cc1ccc(S(=O)(=O)N2CCc3cc(C(=O)Nc4ccc(C(F)(F)F)cc4)ccc32)cc1 | ? | ? | / | -1.8%[46.1 µM] | / | 1.9% | -1.0% | /
COc1ccc(/C(O)=C2/C(=O)C(=O)N(CCCN(C)C)C2c2ccc(C)o2)cc1Cl (stereo not given) | / | -16.0% | -61.9% | / | 3.0% | / | -3.3% | /
CC(CNC(=O)c1cc(COc2c(F)cccc2F)on1)c1ccccc1 (stereo not given) | ? | / | 10.1% | 9.4% | 2.5% | 3.3% | / | -14.5%
COC(=O)c1ccc(N2C(=O)CC(SCCN)C2=O)cc1 (stereo not given) | 11.4% | -10.3% | 18.1% | ? | -25.9% | 44.3%[activator] | 2.1% | -10.9%
Cc1ccc(-n2ncc3c(Nc4cccc(C(=O)O)c4)ncnc32)cc1 | 16.1%[46.1 µM] | 7.5%&-20.7% | 6.3% | ? | 10.0% | 0.0%&-28.6% | -13.2%&-9.6% | 13.3%
O=C(CN(c1ccc(F)cc1)S(=O)(=O)c1ccccc1)NC1CC2CCC1C2 (stereo not given) | / | / | 5.7% | / | 6.2% | -16.1% | / | -11.1%
O=P(Cc1cc[n+]([O-])cc1)(c1ccccc1)c1ccccc1 | -1.9% | -6.1% | 0.0% | 3.7% | -5.6% | 0.0% | 5.9% | -7.6%
O=C(O)c1c2c(nc3ccccc13)-c1ccccc1CC2 | 22.3%[46.1 µM] | / | -6.8% | 25.0%[46.1 µM] | -2.2% | 12.7% | / | -16.3%
O=C(Nc1ccccc1O)c1cccc(S(=O)(=O)Nc2ccccc2O)c1 | -22.4% | / | / | -26.7% | / | -22.9% | / | 15.8%
COc1ccc(Cl)cc1NS(=O)(=O)c1cn(C)nc1C | ? | / | -1.7% | -13.2%[46.1 µM] | ? | 12.1% | / | -12.3%
COc1ccc(N=C2SC(CC(=O)Nc3ccccc3)C(=O)N2Cc2ccco2)cc1 (stereo not given) | ? | 17.6% | -1.3% | -20.6% | -26.8% | ? | -5.9% | 7.6%
O=C(O)C1C2C=CC(C2)C1C(=O)Nc1ccccc1Br (stereo not given) | ? | / | -0.2% | 11.5% | 3.2% | 1.4% | / | 61.3%
COc1ccc(NC(=O)Cn2c(SCc3cccc(Cl)c3)nc3ccncc32)c(OC)c1OC | 2.7%[46.1 µM] | 21.9% | / | -3.3%[46.1 µM] | / | -3.0% | -10.9% | /
O=C(Nc1ccccc1)C1CCCN1S(=O)(=O)c1ccc(Br)cc1 (stereo not given) | 3.9%[46.1 µM] | / | 0.9% | 20.1%[46.1 µM] | -2.7% | -13.2% | / | -7.4%
CCCC1=Nc2cc(C(=O)NCCc3ccccc3)ccc2Sc2ccc(C)cc21 | -11.1%[46.1 µM] | ? | / | ? | / | -2.1% | -2.0% | /
COC(=O)[C@@H]1C[C@@]2(O)[C@H](O)[C@H](O)[C@H](O)C[C@H]2N1Cc1ccc(C)s1 | / | -5.1% | -3.0% | / | -0.9% | -19.7% | -0.4% | 8.1%
Cc1ccc(CNCCC2=CCCCC2)cc1 | ? | 14.8% | -3.4% | ? | 2.3% | 3.4% | -6.8% | ?
COc1ccccc1CN1CCCCC1c1cccnc1 (stereo not given) | -6.0% | -12.1% | -12.1% | 33.7% | -3.7% | 8.0% | 5.9% | -4.9%
O=C(CCN1CCN(Cc2ccccc2)CC1)NNC(=O)Cc1ccc(Cl)c(Cl)c1 | 15.1% | 0.0% | 7.8% | -24.4% | -2.2% | -23.6% | -4.2% | 11.8%
CCC1CCCCN1CCCNC(=O)c1ccc2nc(N3CCC(C)CC3)sc2c1 (stereo not given) | / | / | 3.4% | / | 21.4% | ? | / | 1.1%
CC(=O)c1ccc(NC(=O)c2ccc3c(c2)N(Cc2cccc(Cl)c2)C(=O)c2ccccc2S3(=O)=O)cc1 | 5.5%[46.1 µM] | 10µM* | / | ? | / | 11.6% | -1.8% | /
COc1ccc(OCCC(=O)Nc2cc3c(cc2C(=O)O)OCCCO3)cc1 | 6.4% | / | / | ? | -2.2% | -14.0% | / | -7.8%
COc1ccc(-c2cc3ncnc(Cl)c3s2)cc1 | -26.0%[46.1 µM] | / | -10.0% | -9.9%[46.1 µM] | -8.6% | -4.1% | / | -13.5%
Cc1ccccc1NS(=O)(=O)c1ccc(C)c(C(=O)N2CCOCC2)c1 | -13.6% | / | 24.3% | -0.9% | -10.2% | -7.9% | / | ?
CC(C)OCCCNC(=S)NNC(=O)c1ccc(Cl)c(Cl)c1 | / | / | 1.0% | / | -0.3% | 10.8% | / | 5.4%
CC(=O)NC(CC(=O)O)c1ccc([N+](=O)[O-])cc1 (stereo not given) | -11.6% | / | 4.9% | -0.6% | 0.9% | -11.5% | / | -4.1%
CCOC(=O)Cn1c(=O)oc2cc(S(=O)(=O)N3CCC(C(=O)OCC)CC3)ccc21 | 11.0%[46.1 µM] | 2.0% | / | -1.2%[46.1 µM] | / | -19.1% | 0.6% | /
OC(COCc1ccc(Cl)cc1)CN1CCN(CC(O)COCc2ccc(Cl)cc2)CC1 (stereo not given) | ? | -6.5% | -12.9% | ? | 3.1% | ? | 2.0% | 2.6%
COc1cc(/C=C/C(=O)OCC(=O)c2c[nH]c3ccccc23)ccc1OC(F)F | -17.5% | -9.2% | 7.1% | 1.3% | 9.8% | -21.5% | -8.0% | 2.5%
COc1cccc(N(C(=O)c2csnn2)C(C(=O)NC2CCCC2)c2ccccc2)c1 (stereo not given) | ? | / | -0.2% | -26.5%[46.1 µM] | -1.3% | -17.2% | / | 11.9%
COC(=O)c1c(C)oc2ccc(OC(=O)c3cccs3)cc12 | -0.4% | -5.3% | -74.6% | 2.9% | -28.7% | -13.6% | -6.5% | -16.3%
Cc1ccc(-c2nnc(SCC(=O)Nc3ccc4c(c3)oc3ccccc34)n2C)c(Cl)c1 | -20.0% | ? | 8.4% | -24.9% | 7.7% | -22.2% | -4.2% | -2.9%
Cc1cc(C(=O)N(C)CC2CCCN(CCc3ccc(F)cc3)C2)c(C)o1 (stereo not given) | / | / | -8.1% | / | 5.7% | -24.4% | / | 2.7%
CC(=O)NC1=CC(=C[N+](=O)[O-])C=C1O | 26.0% | / | / | ? | / | 9.4% | / | 17.5%
CCN1C(=S)SC(=O)C1=C1C=C(C)N(Cc2ccco2)C(C)=C1 | ? | ? | -39.5% | ? | 7.2% | 21.9% | -17.3% | -5.0%
Cc1ccc(N(C)S(=O)(=O)c2cccc(C(=O)Nc3ccc(C)cn3)c2)cc1 | ? | / | / | ? | -1.8% | 39.8µM* | / | 0.0%
COc1cc(CCCN2C(N)=NC[C@H]2Cc2ccc(O)cc2)cc(OC)c1OC | / | / | -5.7% | / | 8.3% | 1.1% | / | -11.2%
Cc1ccc(SCC(=O)OCC(=O)Nc2ccc3[nH]c(=O)[nH]c3c2)cc1C | -2.7% | / | / | 0.0%[46.1 µM] | -6.1% | -7.4% | / | 4.2%
CN1CCN(C(=O)c2ccccc2[N+](=O)[O-])CC1 | 18.4% | / | 1.6% | 6.9% | 5.9% | -10.1% | / | -18.3%
CCCCNC(=O)C1CCN(C(=O)Nc2ccc(C)cc2)CC1 | 3.5% | -0.3% | 4.9% | -28.8% | 6.4% | -10.4% | -2.2% | 9.8%
CCc1ccccc1N(CC(=O)OC)S(C)(=O)=O | 20.4% | 7.1% | 6.8% | 1.1% | 4.9% | -17.4% | 4.1% | 4.4%
O=C(COC(=O)COc1ccccc1)NCc1ccccc1 | 14.0% | / | -5.4% | -1.5%[46.1 µM] | -7.2% | 2.4% | / | 0.2%
Cc1ccc(C(=O)Nc2nc(=O)n(C)s2)cc1 | 18.8% | -3.3% | -42.3% | 19.8% | -3.2% | 15.1% | 10.9% | -14.5%
CCOc1ccc(-c2csc(NC(=O)CSCC(=O)O)n2)c2ccccc12 | -9.0% | / | / | 6.7%[46.1 µM] | -4.2% | -25.1% | / | 10.1%
O=[N+]([O-])c1cccc(COc2ncnc3cc([N+](=O)[O-])ccc23)c1 | 7.8%[46.1 µM] | / | -1.8% | ? | 0.9% | -18.9% | / | -6.2%
C=CCn1c(SCC(=O)Nc2sc3c(c2C#N)CCC(C)C3)nc2cc(C(=O)O)ccc2c1=O (stereo not given) | 17.4%[46.1 µM] | / | / | -1.9%[46.1 µM] | 7.2% | -3.5% | / | 1.3%
CC(=O)NC1(c2ccccc2)CCN(C(=O)N2CCOCC2)CC1 | 10.7% | -0.1% | -1.4% | 14.7% | -1.5% | 17.4% | -5.6% | 9.7%
Cc1cccc(N(C)S(=O)(=O)c2cc3c(cc2Cl)NC(=O)CO3)c1 | 15.9%[46.1 µM] | 2.9% | / | / | / | -14.6% | -12.5% | /
